2A firefly = FMDV 2A StopGo reporter, firefly signal; Potency, µM (highest dose often 57.5 µM), for the others: at the highest dose signal change, negative = less light; actives 0.23% (n = 120,000); HEK cells with a luciferase reporter of 2A StopGo recoding; AID 1745856; active = well fitted falling curve with a large enough effect; inconclusive = small, poorly fitted or top-dose-only effect; inactive = no such curve, though single readings can be large or run the other way; further: nearly all actives have a fitted effect of over 60% in size; overnight with compound
2A Renilla = lowers the Renilla signal of an FMDV 2A StopGo reporter. HEK cells with a luciferase reporter of 2A StopGo recoding. Potency, µM (highest dose often 57.5 µM), for inactives: top-dose signal change, negative = less light. actives 0.32% (n = 120,000). AID 1745857; active means well fitted falling curve with a large enough effect; inconclusive means small, poorly fitted or top-dose-only effect; inactive means no such curve, though single readings can be large or run the other way; further: nearly all actives have a fitted effect of over 55% in size; overnight with compound
Numbers without * were called inactive; ? = inconclusive; & = joins results of further samples; [ ] = remark or other dose. On the % scale 0 is the no-effect control and ±100 the full control effect; potency means the concentration at half of the fitted maximal effect.

SMILES	2A firefly	2A Renilla
CCCc1nc2nc(C)[nH]n2c(=O)c1NC(=O)Nc1cccc(C(F)(F)F)c1	3%	-8%
S=c1[nH]c(-c2ccc(Cl)cc2)cs1	138%[activator]	33%[activator]
CN(Cc1ccccc1)C(=O)c1cn(C)c2ccc(S(=O)(=O)N3CCCCC3)cc2c1=O	-15%	-14%
Cc1ccc(C)c2c(C)c(C(=O)O)oc12	10%	5%
Cc1oc(-c2ccccc2)nc1C(=O)OCC(=O)NCc1ccccc1	-1%	-3%
COc1cc(/C=C(/C#N)c2ccc(Cl)cc2)ccc1OC(C)C	0%	8%
COc1cccc(/C=C/C(=O)NCC(F)(F)F)c1	54%[activator]	1%
CCn1c(CNC(=O)C23CC4CC(CC(C4)C2)C3)nnc1SCC(=O)Nc1ccc(F)cc1	-7%	7%
CCOC(=O)c1ccccc1OC(=O)c1ccccc1	5%	7%
O=C1CC(c2ccc(Cl)cc2)CC(=O)N1	-6%[11.5 µM]	-8%
CN(C)[C@@H]1C(=O)C(C(N)=O)=C(O)[C@@]2(O)C(=O)C3=C(O)c4c(O)cccc4[C@@](C)(O)[C@H]3C[C@@H]12	-13%[11.5 µM]	-13%
COc1ccc(C(=O)Nc2ccc3nc(N4CCCCC4)cc(C)c3c2)c(OC)c1	-15%	-13%
CCCC(C)NC(=O)C1CCN(C(=O)C(C)(C)C)CC1 (stereo not given)	6%	-3%
CCCSc1nnc2n(-c3ccc(OC)cc3)c(=O)c3c4c(sc3n12)COC(C(C)C)C4 (stereo not given)	-14%	-12%
NNc1nc(NCc2ccccc2)nc(Nc2ccccc2)n1	7%	0%

Record cards (already shown). Screens in order: 2A firefly | 2A Renilla
`Cc1ccc(C)c2c(C)c(C(=O)O)oc12` in the list: 10% | 5%
`COc1cccc(/C=C/C(=O)NCC(F)(F)F)c1` in the list: 54%[activator] | 1%

Returning to the listing; the 2 compounds before the break are reprinted first.
SMILES	2A firefly	2A Renilla
CCCSc1nnc2n(-c3ccc(OC)cc3)c(=O)c3c4c(sc3n12)COC(C(C)C)C4 (stereo not given)	-14%	-12%
NNc1nc(NCc2ccccc2)nc(Nc2ccccc2)n1	7%	0%
COC(=O)c1ccc(NS(=O)(=O)c2ccc3c(c2)n(C)c(=O)c(=O)n3C)cc1	-41%	-15%
c1ccc(Oc2ncnc3scc(-c4ccccc4)c23)cc1	0%	27%
O=S(Cc1ccccc1)Cc1ccc(Cl)cc1 (stereo not given)	25%	8%[1.06 µM]
CCn1c(CN2CCCCC2)nc2cc(NC(=O)c3ccccc3[N+](=O)[O-])ccc21	-6%	-4%
O=C(COCc1cc(-c2ccc(F)cc2)on1)Nc1cc(Cl)ccc1O	-12%	-8%
COc1ccc(Cl)cc1NC(=O)COC(=O)CCS(=O)(=O)c1ccc(C)c(C)c1	-4%	-15%
CCOc1ccc(-c2cc(C(=O)NCc3ccc(OC)cc3)c3c(-c4ccc(F)cc4)[nH]nc3n2)cc1	-16%	-11%
CCOC(=O)c1c(C)[nH]c(C)c1S(=O)(=O)N(C)CC(=O)N1CCN(c2ccccc2)CC1	39%	140%[activator]
Cc1cc(OCC(=O)N(Cc2sccc2C)C2CCS(=O)(=O)C2)ccc1Cl (stereo not given)	6%	-2%
CCc1ccc(CNC(=O)C2COc3ccccc3C2)cc1 (stereo not given)	-3%	-5%
CC(C)(C)C(=O)NC1CCN(Cc2ccccc2)C1 (stereo not given)	-4%	?
COc1ccc(OC)c(CC(C)N)c1 (stereo not given)	4%[27 µM]	-8%[129 µM]
COc1ccc(CN(CCN(C)C)c2ncccn2)cc1	-13%[11.5 µM]	-18%
Cc1cc(N)c([N+](=O)[O-])cc1C	0%	-1%
CCN1CCN(CCOc2ccc3cc(-c4ccc(OC)cc4)c(=O)oc3c2)CC1	152%[activator]	-1%
Cc1cc(-c2nnc(CSc3nc4ccc(Cl)cc4[nH]3)o2)c(C)o1	-20%	-18%
Cc1ccc(CCNC(=O)c2ccc(Nc3nc4ccccc4n4nnnc34)cc2)cc1	15%	-2%
CCOc1ccc2c(c1)cc(C(=O)Nc1ccc(F)cc1F)n2C	2%	8%
Nc1ccc(C(=O)N/N=C/c2ccc([N+](=O)[O-])cc2)cc1	68%[activator]	4%
O=C(Nc1ccc(SC2CCCC2)cc1)c1cccs1	55%[activator]	?
O=C(COc1ccccc1Cl)Nc1cccc(-c2nnc(-c3ccco3)o2)c1	-12%	-11%
COc1ccc(/C=C2\Oc3cc(OC(=O)C(C)(C)C)ccc3C2=O)cc1	5%	-1%
Cc1ccc(-c2nc(CS(=O)(=O)CC(=O)Nc3cc(C)ccc3C)c(C)o2)cc1	0%	-17%
CC1CCN(S(=O)(=O)c2ccc3nc(NCc4ccc(N(C)C)cc4)ccc3c2)CC1	-32%	96%[activator]
Cc1ccc(C(=O)Oc2c(S(=O)(=O)c3ccccc3)c(C)nn2-c2ccccc2)cc1	10%	16%
CC1CN(C(=O)N2CCC(C(=O)NCCCc3ccccc3)CC2)c2ccccc2O1 (stereo not given)	2%	-1%
COC(=O)c1ccc(C2/C(=C(\O)c3ccc(F)cc3)C(=O)C(=O)N2c2ccccn2)cc1 (stereo not given)	37%[activator]	10%
Cc1ccc(N2CCN(C(=O)C3CCN(S(=O)(=O)c4ccc5c(c4)oc(=O)n5C)CC3)CC2C)cc1 (stereo not given)	2%	-4%
CCCn1nc(C(=O)Nc2ccc3nc(C)sc3c2)c2ccccc2c1=O	135%[activator]	58%[activator]
CCCCC(CC)CNC(=S)Nc1ccc(C)cc1C (stereo not given)	-19%	166%[activator]

A second format for some results above.
compound | 2A firefly | 2A Renilla
O=C(COc1ccccc1Cl)Nc1cccc(-c2nnc(-c3ccco3)o2)c1 | -12% | -11%
COc1ccc(/C=C2\Oc3cc(OC(=O)C(C)(C)C)ccc3C2=O)cc1 | 5% | -1%
Cc1ccc(-c2nc(CS(=O)(=O)CC(=O)Nc3cc(C)ccc3C)c(C)o2)cc1 | 0% | -17%
CC1CCN(S(=O)(=O)c2ccc3nc(NCc4ccc(N(C)C)cc4)ccc3c2)CC1 | -32% | 96%[activator]
Cc1ccc(C(=O)Oc2c(S(=O)(=O)c3ccccc3)c(C)nn2-c2ccccc2)cc1 | 10% | 16%

Going on with the list.
SMILES	2A firefly	2A Renilla
O=C(Nc1ccc(SC2CCCC2)cc1)C1CC1	42%[activator]	48%[activator]
O=C(O)c1ccc(CN2CCC(CO)CC2)cc1	-6%	-1%
O=C(CSc1nnc(-c2ccco2)n1C1CCCCC1)N1CCN(c2ccc(O)cc2)CC1	-3%	9%
Cc1ccc(CC(=O)N2CCN(S(=O)(=O)c3ccccc3)CC2)cc1	-9%	-6%
COc1ccc(-c2nnc(CSc3nc(C)c(C)n3C3CCCC3)o2)cc1	?	?
O=S(=O)(c1ccc2oc(Nc3ccc(F)cc3)nc2c1)N1CCCCC1	25%	10%
CC(C)(C)C1CCc2c(sc(NC(=O)c3ccccc3Cl)c2C(=O)N2CCOCC2)C1 (stereo not given)	-1%	39%[activator]
Cc1ccc(OCCCOc2ccc(Cl)cc2/C=N/NC(=O)c2ccccc2)c(C)c1	-2%	-3%
Cc1nc(-c2cccnc2)sc1CCNS(=O)(=O)c1ccc(F)cc1	11%	187%[activator]
CC1CCN(c2nc(-c3ccc(C(C)(C)C)cc3)nc3ccccc23)CC1	152%[activator]	13%
CC(C)OCCCNC(=O)Cn1cnc2c1c(=O)n(C)c(=O)n2C	-3%	-5%
CCCCOc1cccc(C(=O)N(Cc2cccs2)c2ccc(OC)cc2)c1	0%	0%
N#Cc1nc(-c2ccc(F)cc2)oc1NCc1ccccc1	?	35%
C=C(CS(=O)(=O)c1ccc2ccccc2c1)c1ccccc1	45%[activator]	59%[activator]
COc1ccc(CNC(=O)CCS(=O)(=O)c2cc3c4c(c2)CCN4C(=O)CC3)cc1	-8%	-8%
CC(=O)c1cccc(NC(=O)c2nc(-c3ccccc3)oc2C)c1	10%	-7%
N#Cc1c(C(F)(F)F)cc(-c2ccccc2)nc1SCc1ccccc1	-6%	-7%
COc1ccc(N2C(=O)CSC23C(=O)N(CC(=O)NCc2ccccc2)c2ccccc23)cc1 (stereo not given)	-6%	18%
CNC(=O)C1CCN(Cc2csc(-c3ccc(C(F)(F)F)cc3)n2)CC1	-3%	-7%
CC(NC(=O)c1cccc2cccnc12)C1CC1 (stereo not given)	6%	0%
O=C(NCCc1ccc2c(c1)OCCO2)c1ccccc1NS(=O)(=O)c1cccs1	33%[activator]	21%
COc1cc(/C=C(\C#N)c2nc3ccccc3[nH]2)ccc1OCc1cccc(C(F)(F)F)c1	101%[activator]	-12%
COc1ccc(Nc2c3c(nc4ccc(NC(=O)c5ccc(F)cc5)cc24)CCCC3)cc1OC	-15%	-13%
c1cc(CNCC2CCCO2)ccn1 (stereo not given)	35%[activator]	29%
Cc1ncn[nH]1	0%	0%
CCCN1CCN(CCCNC(=O)c2cc3c(=O)[nH]c4ccccc4c3s2)CC1	-9%	-11%
Nc1nc(COC(=O)c2ccc(OC(F)F)cc2)nc2ccccc12	3%	-13%
CCOC(=O)c1sc2nc(C(C)N3CCC(C)CC3)[nH]c(=O)c2c1C (stereo not given)	0%	-14%
CCn1cc(C#N)c(=O)n(Cc2nc(-c3ccccc3Cl)no2)c1=O	10%	-6%
COc1ccc(C(=O)N2CCC(C(=O)O)CC2)cc1	-7%	-7%

Compounds shown so far that have a COOH group, in the order listed:
SMILES	2A firefly	2A Renilla
Cc1ccc(C)c2c(C)c(C(=O)O)oc12	10%	5%
O=C(O)c1ccc(CN2CCC(CO)CC2)cc1	-6%	-1%
COc1ccc(C(=O)N2CCC(C(=O)O)CC2)cc1	-7%	-7%

The list continues:
SMILES	2A firefly	2A Renilla
CCN(CC)C(=O)COc1ccc(-c2nnc(N3CCCCC3)c3ccccc23)cc1	0%	-4%
Cn1c(-c2ccccc2)cnc1NC(=O)NCCc1ccccc1	146%[activator]	17%
CCOC(=O)c1c(NC(=O)C(CC)Oc2ccccc2)sc2c1CCCC2 (stereo not given)	-25%	-32%
CCOc1ccc(CNC(=O)c2cc3cc(S(=O)(=O)N4CCCCC4)ccc3n2C)cc1	?	?
Cc1ccc(SC(=O)c2ccc(Cl)cc2Cl)cc1	71%[activator]	-8%
COc1ccc2c(C)c(CC(=O)N3CCCC3)c(=O)oc2c1	65%[activator]	-2%
Cc1ccc(S(=O)(=O)Nc2ccc(-c3cn4ccccc4n3)cc2)c(C)c1	0%	206%[activator]
CCOc1ccc(-c2nc(Cn3nnc(C(=O)NCc4ccc(Cl)cc4)c3N)c(C)o2)cc1OC	86%[activator]	3%
CC(C)(C)C1CCc2c(sc(NC(=O)C3c4ccccc4Oc4ccccc43)c2C(N)=O)C1 (stereo not given)	35%[activator]	-9%
O=C(COC(=O)CCc1nc2ccccc2s1)Nc1ccccc1C(=O)c1ccccc1	-4%	-1%
CC(C)CCOc1ccc(CO[C@@H]2[C@H]3OC(C)(C)O[C@H]3O[C@@H]2[C@@H](O)CO)cc1	16%&11%	6%&-4%
Cc1cc2ccccc2n1CC(=O)Nc1ccc(Oc2ccccc2)cc1	17%	1%
CCOc1ccc(CCNC(=O)Cn2ncn3c(cc4ccccc43)c2=O)cc1OCC	-12%	-12%
O=C(COc1ccccc1Cl)Nc1cc(-c2ccccc2F)nn1-c1ccccc1	-15%	-4%
Cc1cc(=O)oc2cc(OCC(=O)NC3CCCCC3)c(Cl)cc12	23%	-7%
CC1CCN(c2ncnc3c2nnn3C)CC1	-15%	-16%
CC1=C(C(=O)Nc2ccccc2)C(c2ccccc2)n2nc(-c3ccco3)nc2N1 (stereo not given)	-7%	11%
COc1ccc(CNC(=O)C2CCN(C(=O)N3CC(C)Oc4ccc(C)cc43)CC2)cc1 (stereo not given)	0%	0%
N#Cc1c(Cl)nc(NCCNc2ccccn2)c(Cl)c1Cl	14%	8%
COc1ccc(S(=O)(=O)NCc2cccn2Cc2cccc(C)c2)cc1Cl	6%	338%[activator]
CCCCCCCCCCCCCCCCCCOCC(O)CO (stereo not given)	-7%[11.5 µM]	-5%
C=C(c1ccc(C(=O)O)cc1)c1cc2c(cc1C)C(C)(C)CCC2(C)C	-6%	5%
CCc1nonc1NC(=O)c1oc2cc(C)c(C)cc2c1C	55%[activator]	-1%
CCN(CC)C(=O)Cn1c(=O)n(Cc2ccc(C(=O)NCCCOC)cc2)c(=O)c2ccccc21	-12%	-5%
CN1CCN(c2nc3ccccc3nc2C(=O)Nc2cccc(Cl)c2)CC1	-17%	-16%
C#CCN1C(=O)C(O)(CC(=O)c2ccc(OC)c(OC)c2)c2cc(Br)ccc21 (stereo not given)	-13%	-3%
CCc1cc2c(cc1C1(C)OCCC(C)O1)C(C)(C)CCC2(C)C (stereo not given)	-7%	-8%
CC1=C(C(=O)Nc2cc(C)cc(C)c2)C2(CCCCC2)OC1=O	25%	-21%
CCOC(=O)c1ccc2ncc3c(-c4ccccc4)nn(-c4ccc(F)c(Cl)c4)c3c2c1	-12%	-8%
CCOc1ccc(Nc2nc(N)c(C(=O)c3ccc(OC)c(OC)c3)s2)cc1	44%[activator]	54%[activator]
CCN1CCOC(=O)C1CC(=O)Nc1ccccc1C(F)(F)F (stereo not given)	-18%	-13%
